Bioassay records: PubChem, National Center for Advancing Translational Sciences (NCATS)
gsp agonist = activates gsp, the McCune-Albright syndrome mutation. gsp mutant cells, cAMP HTRF, 30 min; control for the full effect not named in the record. Potency, µM (titrated, usually from 76.9 µM), without a hit: at the top dose activation (cAMP increase), actives largely listed as activators. hit rate 0.13% among 340,000. AID 624287; active = well fitted activation curve with a large enough effect; inconclusive = small, poorly fitted or top-dose-only effect, or another doubt; inactive = no such curve, though single readings can be large or run the other way; cell line not stated here;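 also: phosphodiesterase inhibitor Ro 20-1724 added with compounds to block cAMP breakdown; potency is read from the fitted curve at half-maximal effect; nearly all actives have a fitted effect of over 60% in size; about a fifth of the inactives were tested at one dose only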
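Cells in DMEM/10% FBS with G418 were pretreated with compounds in DMSO plus […] (300 uM stock) for 30 min at 37C. cAMP was measured by HTRF (cAMP-d2 plus anti-cAMP antibody-K) after 30 min at room temperature.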
Six1-Eya2 blk = Six1/Eya2 interaction inhibition; activity change, % (test concentration not listed); Q15475+O00167; AlphaScreen GST-Six1/His-Eya2 binding, biochemical; hits give low values; control for the full effect not named in the record; hit rate 0.56% among 360,000; in the data active = activity change below about -65%; inconclusive = about -30% to -65%; inactive = above about -30%; also: % is scaled to controls: 0 for no effect and ±100 for the full control effect; compound concentration not given in the record
Target sequence (O00167 whole entry, looked up): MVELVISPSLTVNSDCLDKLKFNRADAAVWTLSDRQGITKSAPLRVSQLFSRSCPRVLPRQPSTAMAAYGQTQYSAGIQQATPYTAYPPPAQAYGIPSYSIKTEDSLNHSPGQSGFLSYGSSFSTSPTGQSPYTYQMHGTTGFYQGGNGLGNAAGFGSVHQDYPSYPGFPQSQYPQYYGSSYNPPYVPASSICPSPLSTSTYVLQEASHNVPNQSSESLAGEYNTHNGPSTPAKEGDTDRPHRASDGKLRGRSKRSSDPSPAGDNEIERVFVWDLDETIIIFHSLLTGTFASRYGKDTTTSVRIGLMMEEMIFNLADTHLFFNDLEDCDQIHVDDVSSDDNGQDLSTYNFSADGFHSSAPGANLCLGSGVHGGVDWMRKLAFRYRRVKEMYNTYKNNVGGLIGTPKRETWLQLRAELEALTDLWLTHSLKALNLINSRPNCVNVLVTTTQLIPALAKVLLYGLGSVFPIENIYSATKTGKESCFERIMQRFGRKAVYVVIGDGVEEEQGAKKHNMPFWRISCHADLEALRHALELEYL
Target sequence (Q15475 whole entry, looked up): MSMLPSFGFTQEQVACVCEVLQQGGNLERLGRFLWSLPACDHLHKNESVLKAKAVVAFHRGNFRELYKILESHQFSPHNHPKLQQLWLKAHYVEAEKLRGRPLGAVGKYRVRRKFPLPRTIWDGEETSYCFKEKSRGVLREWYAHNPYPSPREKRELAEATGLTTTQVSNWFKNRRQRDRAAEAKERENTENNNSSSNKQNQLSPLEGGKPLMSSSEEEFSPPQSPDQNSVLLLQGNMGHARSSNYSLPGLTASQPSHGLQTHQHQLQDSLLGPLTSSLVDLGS
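AlphaScreen luminescence read after one hour at 37 °C in darkness. Pin-transferred compounds met GST-Six1 and His-Eya2 protein (5X stock 250 nM/500 nM) plus glutathione donor and Ni-chelate acceptor beads (5X, 50 ug/mL).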
gsp antagonist = antagonists of gsp mutant (McCune-Albright syndrome) | gsp-mutant cells, cAMP HTRF, 30 min; control for the full effect not named in the record | Potency, µM (highest dose often 76.9 µM), for inactives: top-dose activity change, negative = inhibition, most hits filed as inhibitors | hit rate 0.4% among 340,000; active = falling curve of any shape with a large fitted effect; inconclusive = falling curve, mostly with a smaller effect; inactive = flat or rising curve; cell line not stated here;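 also: intracellular cAMP measured with PDE inhibitor Ro 20-1724 present during compound exposure; potency is read from the fitted curve at half-maximal effect; % is scaled to controls: 0 for no effect and ±100 for the full control effect; nearly all actives have a fitted effect of over 65% in size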
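Measurement of cellular cAMP by homogeneous time-resolved fluorescence following a 30 min compound exposure at 37C. The PDE inhibitor […] was present throughout; the assay buffer was DPBS with 0.05% BSA and 0.005% Tween 20.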
D2 PAM = positive allosteric modulators of human D2 dopamine receptor. potentiation, % (test concentration not listed). DiscoveRx D2 beta-arrestin cells, luminescence, 90 min; 100% = 57 uM dopamine signal. AID 624464. hit rate 0.23% among 360,000. P14416; active = potentiation of 50% or more; inconclusive = 30% to 50%; inactive = 30% or less;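 also: compound concentration not given in the record; tested on top of an EC20 dose of dopamine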
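PathHunter beta-arrestin assay in DiscoveRx D2 cells. Compounds were added with an EC20 of dopamine (50 nM final) for 90 min at 37 deg C. Luminescence was read 1 h after detection reagent, with 57 uM dopamine as the EC100 control.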
CtBP-E1A blk = inhibitors of CtBP/E1A interaction | AID 651724 | AlphaScreen GST-E1A/His-CtBP binding, 1536-well; hits give low values; control for the full effect not named in the record | hit rate 0.49% among 340,000 | activity change, % (concentration not given with the values); in the data active means activity change below about -65%; inconclusive means about -30% to -65%; inactive means above about -30%; also: % is scaled to controls: 0 for no effect and ±100 for the full control effect
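In 5 uL wells, 23 nL compound meets equimolar GST-E1A and His-CtBP (5X stock 125 nM each) for 2 h, 37 °C. Beads (5X, 50 ug/mL) then 1 h, 37 °C, dark.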
D2 ag = activates the human D2 dopamine receptor | DiscoveRx PathHunter D2 beta-arrestin, luminescence, 90 min; 100% = 57 uM dopamine signal | activation, % (test concentration not listed) | hit rate 0.084% among 360,000 | AID 624465; in the data active = activation above about 40%; inconclusive = about 15% to 40%; inactive = below about 15%; also: compound concentration not given in the record; the text of the record calls up to 30% inactive
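DiscoveRx PathHunter D2 beta-arrestin cells (2,100/well) attached overnight, then compound-stimulated 90 min at 37 C in HBSS/10 mM HEPES/0.1% Tween-20 buffer; beta-galactosidase complementation read by luminescence after 1 h at ambient temperature. Dopamine 57 uM final (EC100) as control.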
Active calls of the source: *; u = inconclusive; x = not tested or not shown; [ ] = another dose, or the depositor's remark.

Compound | gsp agonist | Six1-Eya2 blk | gsp antagonist | D2 PAM | CtBP-E1A blk | D2 ag
CC(C)COC(=O)N1CCCCC1c1cc(C(=O)N2CCOCC2)no1 (centres undefined) | x | 9 | x | -10 | -14 | -3.1
Cc1ccc(OCCOCCN2CCN(C)CC2)c(C(C)(C)C)c1 | 1% | 1 | -4% | -64 | x | 0.4
O=C(O)c1nn(CCOc2ccc(Cl)cc2Cl)c(=O)c2ccccc12 | 16% | 4 | 8% | -4 | 7 | 0.9
CCOC(=O)C1=C(C)N=C2SC(C(=O)OC)=CC(=O)N2C1c1cccc(OC)c1 (centres undefined) | -34%[inhibitor] | -8 | 1% | 6 | -25 | -2.7
Cc1ccc(NC(=O)CSc2ccc(-c3ccco3)nn2)cc1 | 6%[15.4 µM] | 2 | 1% | -14 | -3 | -5.0
COCCNC(=O)CN1C(=O)CSc2ncccc21 | 1% | 6 | -3% | -9 | 4 | -1.7
O=C(COc1cccc(C(F)(F)F)c1)NCC(c1cccs1)N1CCOCC1 (centres undefined) | -30% | -2 | 6% | -3 | 8 | 0.1
COC(=O)CCC(=O)OC1(C)C(=O)C=C2C=C(C3CC3)N(CCc3c[nH]c4ccccc34)C=C2C1=O (centres undefined) | x | -5 | -12% | u | 0 | 7.8
NC(=S)NN=C1C2CC3CC(C2)CC1C3 | -5% | 1 | 5% | -4 | 13 | 1.3
COc1ccc(/C=C2\SC(=O)N(CCNC(=O)C3CC(=O)N(c4ccccc4)C3)C2=O)cc1 (centres undefined) | 3% | -6 | -34% | 2 | -10 | 0.6
O=C(O)CC1Cc2ccccc2C1C(=O)O (centres undefined) | 6% | 3 | 13% | -10 | 0 | -2.3
COc1ccc(CCNC(=S)Nc2ccc(OC)cc2)cc1 | -122%[inhibitor] | -2 | 5% | -3 | -5 | -0.3
O=C(/C=C/c1ccccc1Cl)NNC(=O)c1cccs1 | 1% | 7 | -7% | -9 | x | -1.3
O=C(c1ccccc1)c1ccccc1N/C=C/c1nnnn1-c1ccccc1 | u | -17 | -8% | -6 | -18 | -4.5
CCc1ccc2oc(C(=O)Nc3nonc3CC)c(C)c2c1 | -16% | 8 | 4% | -5 | x | 0.0
O=C(NNS(=O)(=O)c1ccccc1[N+](=O)[O-])c1ccc(O)cc1 | 0% | 6 | 7% | 15 | -2 | 1.2
CC(=O)c1c(C)nn(C(=O)N2CCOCC2)c1C | 16% | 7 | 6% | 25 | 17 | -0.7
O=C1NC(Cc2ccccc2)c2nc3ccc(Br)cc3c(=O)n2-c2cc3ccccc3cc21 (centres undefined) | -29% | -5 | x | x | -5 | -3.1
COc1ccc(NC(=O)CCCCC#Cc2ccccc2)cc1 | 1% | 3 | 3% | -15 | 6 | -1.4
Cc1cccc(N(C)S(=O)(=O)c2ccc(-c3cnc(C4CC4)o3)cc2)c1 | 2% | 6 | 4% | -7 | x | 0.8
CCOc1ccc(NS(=O)(=O)c2ccc(C(=O)NCCCN3CCOCC3)cc2)cc1 | -2%[15.4 µM] | 7 | 12% | -24 | 2 | 1.9
Cc1cc(NC(=O)CCC(=O)N(CCC(C)C)C(C(=O)NC2CCCC2)c2ccccc2C)no1 (centres undefined) | 5% | 5 | 1% | -1 | 4 | 7.9
COc1cc(C(=O)N/N=C/c2coc3ccccc3c2=O)cc(OC)c1OC | 0% | 2 | 13% | -1 | 2 | 1.5
O=C(NCCCN1CCN(CCCNC(=O)c2ccccc2F)CC1)c1ccccc1F | 0% | 25 | 6% | -29 | 0 | -1.1
C[C@H](CO)N1C[C@H](C)[C@H](CN(C)C(=O)Nc2cccc3ccccc23)OCc2cnnn2CCCC1=O | -104%[inhibitor] | 10 | x | 2 | -21 | -2.1
O=C(CCCn1c(=O)[nH]c2ccccc2c1=O)NCCSCc1ccccc1 | 6%[15.4 µM] | 2 | -32% | -1 | -6 | -5.4
O=C(NC1CCCCCC1)c1ccc(OCC2CCCO2)cc1 (centres undefined) | -13%[15.4 µM] | -1 | 5% | -8 | -8 | -1.6
COc1ccc(Nc2oc(-c3ccc(F)cc3)nc2C#N)cc1 | 5%[15.4 µM] | 1 | 0% | 3 | 1 | 3.2
CCn1c(SCC(=O)C(C)(C)C)nnc1-c1cnccn1 | 7% | -6 | 10% | -2 | -3 | -1.7
CCOC(=O)C1CCN(S(=O)(=O)c2c(C(=O)N3CCCCC3)c(C)n(C)c2C)CC1 | 1% | 2 | 4% | 4 | 3 | -3.2
O=C(Nc1cc2c3c(c1)CC(=O)N3CCC2)c1ccccc1Br | -24% | -13 | 1% | -22 | -6 | -1.7
Cc1nc2ncnn2c(N2CCCC(C(=O)Nc3ccc4c(c3)CCC4)C2)c1C (centres undefined) | u | -6 | 40µM* | -7 | 2 | 4.1

Sorted by heavy-atom count (lowest first): some entries from above
Compound | gsp agonist | Six1-Eya2 blk | gsp antagonist | D2 PAM | CtBP-E1A blk | D2 ag
O=C(O)CC1Cc2ccccc2C1C(=O)O (centres undefined) | 6% | 3 | 13% | -10 | 0 | -2.3
CC(=O)c1c(C)nn(C(=O)N2CCOCC2)c1C | 16% | 7 | 6% | 25 | 17 | -0.7
O=C(/C=C/c1ccccc1Cl)NNC(=O)c1cccs1 | 1% | 7 | -7% | -9 | x | -1.3
CCn1c(SCC(=O)C(C)(C)C)nnc1-c1cnccn1 | 7% | -6 | 10% | -2 | -3 | -1.7
CCc1ccc2oc(C(=O)Nc3nonc3CC)c(C)c2c1 | -16% | 8 | 4% | -5 | x | 0.0
O=C(Nc1cc2c3c(c1)CC(=O)N3CCC2)c1ccccc1Br | -24% | -13 | 1% | -22 | -6 | -1.7
Cc1cccc(N(C)S(=O)(=O)c2ccc(-c3cnc(C4CC4)o3)cc2)c1 | 2% | 6 | 4% | -7 | x | 0.8
COc1cc(C(=O)N/N=C/c2coc3ccccc3c2=O)cc(OC)c1OC | 0% | 2 | 13% | -1 | 2 | 1.5
Cc1nc2ncnn2c(N2CCCC(C(=O)Nc3ccc4c(c3)CCC4)C2)c1C (centres undefined) | u | -6 | 40µM* | -7 | 2 | 4.1
CCOC(=O)C1CCN(S(=O)(=O)c2c(C(=O)N3CCCCC3)c(C)n(C)c2C)CC1 | 1% | 2 | 4% | 4 | 3 | -3.2
CCOc1ccc(NS(=O)(=O)c2ccc(C(=O)NCCCN3CCOCC3)cc2)cc1 | -2%[15.4 µM] | 7 | 12% | -24 | 2 | 1.9
O=C(NCCCN1CCN(CCCNC(=O)c2ccccc2F)CC1)c1ccccc1F | 0% | 25 | 6% | -29 | 0 | -1.1
O=C1NC(Cc2ccccc2)c2nc3ccc(Br)cc3c(=O)n2-c2cc3ccccc3cc21 (centres undefined) | -29% | -5 | x | x | -5 | -3.1
Cc1cc(NC(=O)CCC(=O)N(CCC(C)C)C(C(=O)NC2CCCC2)c2ccccc2C)no1 (centres undefined) | 5% | 5 | 1% | -1 | 4 | 7.9
C[C@H](CO)N1C[C@H](C)[C@H](CN(C)C(=O)Nc2cccc3ccccc23)OCc2cnnn2CCCC1=O | -104%[inhibitor] | 10 | x | 2 | -21 | -2.1

Going on with the list:
Compound | gsp agonist | Six1-Eya2 blk | gsp antagonist | D2 PAM | CtBP-E1A blk | D2 ag
O=C(OCC(=O)N1CCCC1=O)c1ccc(F)c(S(=O)(=O)N2CCOCC2)c1 | 15%[15.4 µM] | 13 | 2% | -8 | -4 | -1.5
CC1(CNC(=O)C(=O)NCC2(C)CO2)CO1 (centres undefined) | -18% | 7 | 10% | -10 | 6 | -0.3
Cc1[nH]c2ccccc2c1-c1nc(N)sc1C | 25% | -6 | 8% | -4 | -7 | -0.1
Clc1cccc(-c2cc3nc4c(c(N5CCOCC5)n3n2)CCCC4)c1 | -38%[inhibitor] | 12 | -27% | -7 | 14 | -1.6
O=c1c2c([N+](=O)[O-])cc([N+](=O)[O-])cc2sn1Cc1ccccc1 | -1%[15.4 µM] | -16 | -40% | 8 | -8 | -7.3
CN(c1ccccc1)S(=O)(=O)c1cc(C(=O)NCc2ccco2)ccc1Cl | -1% | -3 | x | -12 | 5 | -3.0
CC/C(=N\NC(=O)c1c(-c2ccccc2)noc1C)c1ccc(C)o1 | -1% | -3 | 8% | 4 | 0 | -0.6
FC(F)(F)COc1nc(OCC(F)(F)F)nc(N2CCN(c3ccccc3)CC2)n1 | -10% | -5 | -23% | 28 | 0 | -1.3

Entries of single compounds from above. Order of values: gsp agonist	Six1-Eya2 blk	gsp antagonist	D2 PAM	CtBP-E1A blk	D2 ag
Listed for O=c1c2c([N+](=O)[O-])cc([N+](=O)[O-])cc2sn1Cc1ccccc1 = -1%[15.4 µM]	-16	-40%	8	-8	-7.3
Listed for CN(c1ccccc1)S(=O)(=O)c1cc(C(=O)NCc2ccco2)ccc1Cl = -1%	-3	x	-12	5	-3.0

Continued:
Compound | gsp agonist | Six1-Eya2 blk | gsp antagonist | D2 PAM | CtBP-E1A blk | D2 ag
Cc1ccc(N(CC(=O)NCCc2ccccc2)C(=O)c2csnn2)cc1 | 8% | 0 | 1% | -8 | 2 | -2.8
O=C(O)C1CCCN1S(=O)(=O)c1ccc(Cl)c(Cl)c1 (centres undefined) | 0% | -1 | -1% | 3 | -8 | 0.3
Cc1ccc(S(=O)(=O)N2CCOCC2)cc1C(=O)NC1CCCC1 | -8%[15.4 µM] | 8 | 19% | -8 | 0 | -5.5
COc1ccc(N2CCN(C(=O)Cn3cnc4c(cnn4-c4ccc(C)cc4)c3=O)CC2)cc1 | 5%[15.4 µM] | 11 | -3% | -8 | -7 | 0.5
Cc1cc(=O)oc2cc(OCC(=O)OCC(=O)Nc3ccccc3F)ccc12 | -5%[15.4 µM] | 18 | -31% | 0 | 6 | -4.9
NC(=O)CSc1nccn1Cc1ccc2c(c1)OCO2 | 11% | 4 | 2% | -4 | 3 | -2.2
COc1cc(NC(=O)C2CCCN2C(=O)C2CCC(C)CC2)cc(OC)c1OC (centres undefined) | 16% | -1 | -2% | 1 | 0 | -0.5
Cc1ccc(S(=O)(=O)NCCCCCC(=O)N(C)C)cc1 | 0% | 0 | -10% | -3 | 1 | -0.9
Cc1cc(C)c(C(=O)N2CCCC(CNS(=O)(=O)c3cccs3)C2)o1 (centres undefined) | 3% | -8 | 18% | 1 | -26 | -0.3
C=CCNC(=O)c1onc(CSc2ccc(F)cc2)c1C(=O)NCCOC | x | 9 | -3% | 2 | 7 | -0.2
Cc1ccc(-n2c(=O)[nH]c3c(C(N)=O)nc(C(C)C)nc32)cc1 | -19% | 4 | -11% | 6 | 0 | -1.4
Cc1ccc(CSc2nnc(-c3ccccn3)n2N)cc1 | 2% | -1 | 5% | 3 | x | -2.4
